Source: PubChem BioAssay (National Center for Advancing Translational Sciences (NCATS))
VDR inh: vitamin D3 receptor (human) inhibition | P11473 | VDR-SRC2-3 peptide fluorescence polarization, 2 h | Potency, µM, for inactives: max response, negative = inhibition, most hits filed as inhibitors | actives 0.93% (n = 400,000) | AID 504847; active means well fitted inhibition curve with a large enough effect; inconclusive means small, poorly fitted or top-dose-only effect, or another doubt; inactive means no such curve, though single readings can be large or run the other way; further: series mostly up to about 120 µM
Target sequence (P11473 whole entry, looked up): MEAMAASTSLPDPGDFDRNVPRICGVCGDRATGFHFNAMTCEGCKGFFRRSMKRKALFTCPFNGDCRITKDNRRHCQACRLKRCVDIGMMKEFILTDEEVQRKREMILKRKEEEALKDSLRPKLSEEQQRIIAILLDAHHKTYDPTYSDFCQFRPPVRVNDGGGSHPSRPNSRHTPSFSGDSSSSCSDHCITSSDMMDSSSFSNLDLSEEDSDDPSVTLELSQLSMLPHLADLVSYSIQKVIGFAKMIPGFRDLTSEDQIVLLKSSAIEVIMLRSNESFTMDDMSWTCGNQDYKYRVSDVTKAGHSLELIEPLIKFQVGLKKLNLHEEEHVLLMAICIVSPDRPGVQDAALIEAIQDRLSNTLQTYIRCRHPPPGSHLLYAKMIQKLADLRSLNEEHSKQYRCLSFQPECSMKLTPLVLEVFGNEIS
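VDR–SRC2-3 interaction, FP format. Cmpds 23 nl via pintool, brief spin, 2 h ambient incubation.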
* = called active by the depositor; ? = inconclusive; & = joins results of further samples. On the % scale 0 is the no-effect control and ±100 the full control effect; potency means the concentration at half of the fitted maximal effect.

SMILES | VDR inh
NC(=O)C1CCN(c2ccc(S(=O)(=O)N3CCCCC3)cc2[N+](=O)[O-])CC1 | -2%
Cc1[nH]c(=O)[nH]c(=O)c1C1N2CC3(C(C)C)CN1CC(C(C)C)(C2)C3=O (configuration not stated) | 12%
Cc1noc(C)c1COC(=O)C1CCN(S(=O)(=O)c2c(Cl)cccc2Cl)CC1 | -10%
COC(=O)c1sccc1S(=O)(=O)N(CC(=O)NCc1ccc(C)cc1)c1ccc(Cl)cc1 | -12%
COc1ccc(Br)cc1/C=N/N1C(=O)CSC1=S | 5%
COc1ccc(-c2nc(N)n[nH]2)cc1OC | 1%
CC(C)=CCC/C(C)=C/CC/C(C)=C/CC/C(C)=C/CO | 0%&9%
Cc1cc(N/N=C/c2cccc(Br)c2)nc2ccccc12 | 0%
COc1ccc(CC2(CO)CCN(Cc3ccc(NC(C)=O)cc3)CC2)cc1 | -3%
CC1(C(=O)O)CCC(C(=O)Nc2ccc(S(N)(=O)=O)cc2)C1(C)C (configuration not stated) | 7%
Cc1ccc(Cl)cc1N1CCN(CC(O)COC(C)C)CC1 (configuration not stated) | 7%
Cc1ccccc1C(=O)Oc1ccc(-c2csnn2)cc1 | -8%

Ordered by the number under VDR inh (largest number first): some entries from above.
SMILES | VDR inh
COc1ccc(-c2nc(N)n[nH]2)cc1OC | 1%
Cc1cc(N/N=C/c2cccc(Br)c2)nc2ccccc12 | 0%
NC(=O)C1CCN(c2ccc(S(=O)(=O)N3CCCCC3)cc2[N+](=O)[O-])CC1 | -2%

Next part.
SMILES | VDR inh
CCCNC(=S)NNC(=O)c1cc(-c2cccnc2)nc2ccccc12 | 8%
CCCC(C)NC(=O)COc1ccc(S(=O)(=O)c2ccc(OCC(=O)NC(C)CCC)cc2)cc1 (configuration not stated) | -18%
O=C(c1ccc2c(c1)C(=O)N(CCCO)C2=O)c1ccc2c(c1)C(=O)N(CCCO)C2=O | 3%
Cc1ccc(S(=O)(=O)N2CCOCC2)cc1C(=O)NCc1cccs1 | 9%
COc1ccccc1N1CCN(C(=O)c2ccc(C(C)(C)C)cc2)CC1 | ?
COC(=O)c1nc(NC(=O)c2ccc(Br)cc2)n[nH]1 | -4%
CC[C@@H](C)[C@@H](O)[C@H](C)C(=O)[C@H](C)/C=C(\C)C[C@H](C)[C@@H]1OC(=O)[C@H]1CC | -11%
CC(C)CC(=O)N(c1nnc(-c2cccnc2)s1)C1CCCC1 | -10%
O=C(N1CCCCC1)C12CC3CC(C1)CC(C(=O)N1CCCCC1)(C3)C2 | 1%
CCN(CC)CCOC(=O)c1ccc([N+](=O)[O-])cc1 | 5%
COc1ccc(C2/C=C\CN(S(=O)(=O)/C=C/c3ccccc3)[C@H](Cc3ccccc3)C(=O)N2Cc2ccc(F)cc2)cc1 (some centres not stated) | -25%
Nc1nc(-c2nn(Cc3ccccc3F)c3ncccc23)ncc1C1CC1 | -14%

In another format: entries from further up
CC(C)CC(=O)N(c1nnc(-c2cccnc2)s1)C1CCCC1
- VDR inh = -10%
O=C(N1CCCCC1)C12CC3CC(C1)CC(C(=O)N1CCCCC1)(C3)C2
- VDR inh = 1%
CCN(CC)CCOC(=O)c1ccc([N+](=O)[O-])cc1
- VDR inh = 5%

(listing goes on)
SMILES | VDR inh
C/C(=N\NC(=O)C(N)=O)c1cccc(C(F)(F)F)c1 | 2%
COc1ccccc1N1CCN(C(c2cccs2)C(C)NC(=O)c2cccnc2)CC1 (configuration not stated) | 5%
COc1ccc(C(C)=O)cc1CSc1nc(NCCc2ccccc2)c2ccccc2n1 | 6%
COc1ccc(CC(=O)NNC(=O)c2cc(Cl)ccc2OC)cc1 | 16%
CC(C)(C)N1CC(C(=O)O)CC1=O (configuration not stated) | 7%
CCCC1OC(c2ccco2)OCC1CC (configuration not stated) | 3%
CCOc1ccc(NC(=O)Cn2nc(SC)c(S(=O)(=O)c3ccccc3)c2N)cc1 | 10%
CCCCC(=O)NC(Nc1nc(C2CC2)cs1)(C(=O)OCC)C(F)(F)F (configuration not stated) | -18%
CCCC[C@@H]1CNC(=S)N1CCc1cccc(F)c1 | -7%
Cc1ccc(C(CC(=O)N2CCCC2)c2ccccc2)c(O)c1 (configuration not stated) | 6%
Cc1cccc(/C(N)=N/OC(=O)CCc2ccccc2)c1 | 7%
Cc1cc(NC(=O)c2ccc([N+](=O)[O-])cc2Cl)no1 | -2%
COc1ccc(-c2ccc(-c3cc(=O)oc4cc(OC)c(OC)c(OC)c34)cc2)cc1 | 9%&1%
Cc1ccc2c(CN3CCN(C(=O)c4ccc(F)cc4)CC3)cc(=O)oc2c1 | 2%
Cc1ccc(Cl)cc1N1CCN(C(=O)Cn2ncn3cccc3c2=O)CC1 | -12%
COc1ccc(C(=O)Nn2cc3c(c2-c2ccccc2)c(=O)n(C)c(=O)n3C)cc1 | 5%
CCOc1ccc(C(=O)NCC(=O)N2CCc3ccccc3C2)cc1OCC | -2%
CC(=O)Nc1c(C)nn(-c2ccccc2)c1N1CCC(C(=O)NCc2ccc(Cl)cc2)CC1 | -1%
Cc1cccc(NC(=O)CSc2nc3ccc(NC(=O)CCc4ccccc4)cc3s2)c1 | -3%
O=C(CSc1ccccn1)N/N=C/c1c[nH]c2ccccc12 | -2%
O=C(NN=Cc1ccccc1O)C(O)(c1ccccc1)c1ccccc1 | -10%
CC(=O)N1CCN(S(=O)(=O)c2cccc(C(=O)Nc3ccc4c(c3)CCC4)c2)CC1 | 10%
COc1ccc(/C=C(\NC(=O)c2ccc(C)cc2)C(=O)Nc2c(C)n(C)n(-c3ccccc3)c2=O)cc1 | -15%
CCCNC(=O)c1ccc2nc(CCc3ccccc3)oc2c1 | -1%
COc1ccccc1/C=c1\sc2nc(-c3ccccc3OC)nn2c1=O | -12%
Cc1c(Cl)cccc1NC(=O)c1cc(S(=O)(=O)N2CCCCC2)cn1C | 7%
CCCCn1c(N)c(C(=S)NC(=O)CC(C)(C)C)c(=O)n(C)c1=O | -17%
Cc1c(Cl)cccc1NC(=O)c1cccc(NC(=O)CCC(=O)O)c1 | -4%
COC(=O)[C@H](CC(C)C)NC(=O)Nc1ccccc1F | -18%
C/C=C/C=C\C(=O)Nc1cccc(C2=NOC3(C2)C[C@H](C(N)=O)N(C(=O)CC#N)C3)c1 (some centres not stated) | -5%
Cc1ccc(NC(=O)CSc2nc(=O)n3cc(C)ccc3n2)c(C)c1 | 3%
Cc1ccc(-n2cccn2)cc1 | -5%
Cc1cc(C)c(S(=O)(=O)N2CCC(n3c(C(F)(F)F)nc4cccnc43)CC2)c(C)c1 | 0%
CC1Cc2ccccc2N1C(=O)Cn1cc([N+](=O)[O-])ccc1=O (configuration not stated) | -2%
N#CCSc1nnc(-c2ccccc2O)n1Cc1ccccc1 | 21%
COc1ccc(CC(=O)Nc2cc(NC(=O)Cc3ccc(OC)c(OC)c3)cc(C(=O)O)c2)cc1OC | 13%

Already shown: an excerpt of the list.
SMILES | VDR inh
COc1ccccc1/C=c1\sc2nc(-c3ccccc3OC)nn2c1=O | -12%
Cc1c(Cl)cccc1NC(=O)c1cc(S(=O)(=O)N2CCCCC2)cn1C | 7%

(more compounds)
SMILES | VDR inh
O=C(NCc1ccccc1F)C1CCN(c2nn3cc(-c4ccc(F)cc4)nc3s2)CC1 | 20%
CCCN1CNc2c(c(=O)[nH]c(=S)n2-c2ccccc2Cl)C1 | 4%
Cc1cccc(CNC(=O)Cn2c(-c3cccs3)cc3ccccc32)c1 | 2%
CCC(C)(C)NC(=O)C(c1ccc(F)cc1)N(Cc1ccccc1)C(=O)c1cnccn1 (configuration not stated) | -8%
C[C@]12CCC(=O)C=C1CC[C@@H]1[C@@H]2[C@@H](O)C[C@@]2(C)[C@H]1CC[C@]2(O)C(=O)COP(=O)(O)O | 0%
Cc1ccc(NC(=O)COC(=O)CCNS(=O)(=O)c2ccc(C)c(C)c2)cc1 | -6%
CNC(=O)c1cnc2sc(N3CCC(C)CC3)nn2c1=O | -1%
Cc1cccc(OCCCC(=O)Nc2ccc(N3CCCCC3)cc2)c1 | 3%
CCC(=O)N(CC(=O)Nc1sc(C)c(C)c1C(N)=O)C1CCCC1 | 5%
Cc1cccc(C(=O)NCCc2nc3ccccc3n2Cc2ccc(Cl)cc2)c1 | 0%
CCOc1ccc(S(=O)(=O)NCCC(=O)NCC(c2ccccc2OC)N2CCCC2)cc1 (configuration not stated) | -11%
Cn1c(SCc2ccc(Br)cc2)nnc1-c1cccs1 | 10%
N#Cc1c(NC(=O)c2cc(-n3cnnc3)ccc2Cl)sc2c1CCCC2 | -17%
COC(=O)c1ccc(Cn2nnc3sc4c(c3c2=O)CCCC4)cc1 | -21%
CS(=O)(=O)N1CCN(C(=S)NCc2ccc(Cl)cc2)CC1 | 1%
COc1ccc(S(=O)(=O)N(CC(=O)Nc2ccc(C)cc2)c2ccc(C)cc2)cc1OC | 9%
Cc1cccn2cc(-c3cccc(NC(=O)c4cccs4)c3)nc12 | 11%
CCOc1ccc(C(=O)Nc2ccc3nc(N(CC)CC)cc(C)c3c2)cc1 | -11%
N/C(=N\OC(=O)Cc1ccccc1)c1cccnc1 | -1%
O=C1N[C@H](Cc2ccccc2)COC(=O)[C@H](Cc2ccc(F)cc2)C/C=C\C[C@H]1CC(=O)N(CCO)Cc1ccccc1 | -4%
COc1ccc(NC(=O)Cn2c(SCc3ccc(C)cc3)nc3cccnc32)c(OC)c1 | 1%
CCNC(=O)CSc1nc2cc(S(=O)(=O)Nc3ccc(OC)cc3)ccc2o1 | -3%
CC(CC(=O)N1CCc2ccccc21)n1cccn1 (configuration not stated) | 12%
O=S(=O)(NCCCCCCNS(=O)(=O)c1c(F)cccc1F)c1ccc2c(c1)OCCO2 | -18%
CCCCC(=O)Nc1sc2c(c1C(N)=O)CCC2 | -6%
COc1ccccc1N1CCN(CCCCN2C(=O)c3ccccc3C2=O)CC1 | 0%&-3%
CCCCC/C=C\C/C=C\C/C=C\C/C=C\CCCC(=O)O[C@@H](CO)COC(=O)CCCCCCCCCCCCCCCCC | 1%&1%
O=C(NCc1ccco1)c1cccc2ccccc12 | 1%
O=C(/C=C/c1ccc([N+](=O)[O-])cc1)NCCSCc1ccco1 | -15%
CCc1cc(C(=O)N2CCCC(Nc3ccc(F)c(F)c3)C2)n(C)n1 (configuration not stated) | -7%
COC(=O)N/N=C\c1ccc(OC/C=C/c2ccccc2)c(OC)c1 | -7%
CCc1ccc(C(=O)OCC(=O)N(CCOC)c2c(N)n(Cc3ccccc3)c(=O)[nH]c2=O)cc1 | 6%
CN(C)c1ccc(/C=C/C(=O)c2ccc(O)cc2)cc1[N+](=O)[O-] | 0%
CC(=O)Nc1ccc2c3c(cccc13)CC2 | 1%
CCOC(=O)/C(C#N)=C1\C(=O)N(Cc2ccccc2)c2ccccc21 | 28µM*
COc1ccc(CCc2nnc(N)s2)cc1OC | 19%
CC(C)[C@H](CO)Nc1nc(Nc2ccc(C(=O)O)c(Cl)c2)c2ncn(C(C)C)c2n1 | -23%
Cc1cc(NC(=S)Nc2ccccc2)ccc1Br | 9%
Cc1cccc(NC(=S)NCc2ccc3c(c2)cc(C)n3C)c1C | 8%
Cc1cc(C(=O)NCc2ccc(S(N)(=O)=O)cc2)c(C)o1 | -1%
CCOc1ccccc1NC(c1nnc(-c2ccccc2)o1)c1ccc(F)cc1Cl (configuration not stated) | 0%
O=C(Nc1ccc(OCc2ccccc2)cc1)c1ccccc1 | ?
CCc1ccc(CNC(=O)c2sc3ncnc(N(C)C4CCCCC4)c3c2C)cc1 | 11%
Cc1nc(SCC(=O)c2ccc(F)c(F)c2)[nH]c(=O)c1Oc1ccc(Cl)cc1 | -22%
COc1cc(/C=C2/C(C)=C(C#N)c3nc(N)c(C#N)c(C)c32)ccc1OCC(=O)O | 7%
COc1ccc(-c2nc3nc(N)nn3cc2C)cc1F | -11%
Cc1cccc2c(=O)c(Br)c(C)n(Cc3ccccc3)c12 | -17%
CCC1=NN(C(=O)Cc2ccc([N+](=O)[O-])cc2)C(O)(c2ccncc2)C1 (configuration not stated) | -17%
Cc1ccc(C2C3C(=O)N(c4ccccc4)C(=O)C3N3CCCN23)cc1 (configuration not stated) | -10%
Cc1cc(C)cc(N(CC(=O)N2CCCCCC2)S(C)(=O)=O)c1 | 14%
O=C(CCN1C(=O)/C(=C/c2ccc(Cl)cc2)SC1=S)NCCCn1ccnc1 | -12%
CCC(=O)NC(c1cccs1)c1ccc2cccnc2c1O (configuration not stated) | -5%
COc1ccccc1C(=O)N/C(=C\c1cn(S(=O)(=O)N(C)C)c2ccccc12)C(=O)NCCCN1CCOCC1 | -11%
Cc1cnc(C(=O)OCC(=O)Nc2cc(S(=O)(=O)N3CCOCC3)ccc2Cl)cn1 | -7%
CCOC(=O)C1CCN(C(=O)c2cccc(C(=O)N3CCC(C(=O)OCC)CC3)c2)CC1 | 9%
COc1ccc(S(=O)(=O)N(Cc2cccs2)C2CCCC2)cc1 | -4%
Cc1cc(C(=O)Nc2ccc(Cl)cc2)c2c(C)nn(-c3ccccc3)c2n1 | 14%
OC(CSc1ccccc1)CN1CCN(c2ccccc2)CC1 (configuration not stated) | 3%
CCC(=O)OCC(=O)C1(OC(=O)CC)[C@H](C)C[C@H]2[C@H]3[C@H]([C@@H](O)C[C@@]21C)[C@@]1(C)C=CC(=O)C=C1C[C@H]3Cl (some centres not stated) | -2%
Cc1ccc(CNC(=O)c2c(-c3ccccc3)noc2C)cc1 | 7%
CC(C)CCN1C(=O)CCC1(C)C(=O)NC1CCCCCC1 (configuration not stated) | -13%
COc1cccc(-c2cc(CC3(O)CCN(CCCc4ccccc4)CC3)on2)c1 | ?

Taken from above.
VDR inh with CC1Cc2ccccc2N1C(=O)Cn1cc([N+](=O)[O-])ccc1=O (configuration not stated) = -2%
VDR inh with COc1ccc(NC(=O)Cn2c(SCc3ccc(C)cc3)nc3cccnc32)c(OC)c1 = 1%
VDR inh with Cc1ccc2c(CN3CCN(C(=O)c4ccc(F)cc4)CC3)cc(=O)oc2c1 = 2%
VDR inh with CCC(C)(C)NC(=O)C(c1ccc(F)cc1)N(Cc1ccccc1)C(=O)c1cnccn1 (configuration not stated) = -8%
VDR inh with CCNC(=O)CSc1nc2cc(S(=O)(=O)Nc3ccc(OC)cc3)ccc2o1 = -3%

The list is partial. The share of hits here may be higher or lower than overall.
